# Anthrax LT inh = blocks cellular internalization of anthrax lethal toxin | hit rate 0.67% among 70,000 | Potency, µM (doses to about 40 µM), for the others: top-dose activity change, negative = inhibition, actives largely listed as inhibitors | AID 912 | Cells, anthrax lethal toxin internalization, FRET ratio (460/530); active = well fitted falling ratio curve with the 530 nm signal flat; inconclusive = other ratio curves, or a change in one channel alone; inactive = flat curves in the ratio and both channels; the % refers to the ratio; also: % is scaled to controls: 0 for no effect and ±100 for the full control effect; nearly all actives have a fitted effect of over 50% in size; tested in ME-180 cells; beta-lactamase reporter
# SmPrx2 inh = blocks S. mansoni peroxiredoxin 2 enzymatic activity | AID 448 | Potency, µM | hit rate 0.07% among 65,000 | S. mansoni Prx2 activity coupled to TGR/GSH (TGR is thioredoxin glutathione reductase), NADPH fluorescence loss, qHTS; some inactives read as strong as hits; active means full or partial inhibition curve with a strong effect at the top dose; inconclusive means weaker partial or single-point curve; inactive means no accepted curve; also: series up to 57 µM; many of its hits are not listed in these tables
#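 Enzyme mix: 100 uM NADPH, 25 nM TGR, 700 uM GSH, 50 nM Prx2 in 100 mM phosphate pH 7.4, 10 mM EDTA, 0.01% Tween-20. 15 min RT with compound; NADPH/GSH added, H2O2 starts reaction; NADPH fluorescence read 8 min.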
# Active calls of the source: *; ? = inconclusive; · = not tested or not shown; & = joins results of further samples; [ ] = dose if it differs, or a comment. Potency is read from the fitted curve at half-maximal effect. These rows are one share of the data. The share of hits here may be higher or lower than overall.
# Preview (five entries):
# Each structure is followed by: Anthrax LT inh, SmPrx2 inh
> CCN(CC)S(=O)(=O)c1ccc(NC2c3ccccc3C(=O)N2CCN2CCOCC2)cc1 (configuration not stated)
  ?, >57
> CCOc1ccc(-n2ccnc2SCC(=O)Nc2nnc(C)s2)cc1
  ?, >57
> COc1ccc(-c2nc(-c3ccccc3OC)no2)cc1OC
  -10%, >57
> Cc1cccc(CNc2ccnc(-c3cccnc3)n2)c1
  -6%, >57
> COc1ccc2[nH]c(=O)c(CN(CC3CCCO3)C(=O)Nc3ccc(F)cc3)cc2c1 (configuration not stated)
  -1%, >57

# The whole of this part (from the top)
# Each structure is followed by: Anthrax LT inh, SmPrx2 inh
> CCN(CC)S(=O)(=O)c1ccc(NC2c3ccccc3C(=O)N2CCN2CCOCC2)cc1 (configuration not stated)
  ?, >57
> CCOc1ccc(-n2ccnc2SCC(=O)Nc2nnc(C)s2)cc1
  ?, >57
> COc1ccc(-c2nc(-c3ccccc3OC)no2)cc1OC
  -10%, >57
> Cc1cccc(CNc2ccnc(-c3cccnc3)n2)c1
  -6%, >57
> COc1ccc2[nH]c(=O)c(CN(CC3CCCO3)C(=O)Nc3ccc(F)cc3)cc2c1 (configuration not stated)
  -1%, >57
> c1csc(CNc2ncnc3ccc(-c4ccc5c(c4)OCO5)cc23)c1
  ?, >57
> O=C(Cn1nc(-c2ccccc2)ccc1=O)NCc1ccc2c(c1)OCO2
  8%, >57
> NS(=O)(=O)c1ccc(NC(=O)N[C@@H](Cc2ccccc2)C(=O)O)cc1
  -1%, >57
> COc1ccccc1CNc1ncncc1-c1ccccc1CN(C)C
  -4%, >57
> COc1ccc(NC(=O)c2ccco2)cc1NC(=O)c1ccc(C)cc1
  ?, >57
> Cc1cc(C)n2c(Br)c(CN3CC4CC(C3)c3cccc(=O)n3C4)nc2n1 (configuration not stated)
  3%, >57
> CCOc1ccc(NC(=O)CSC(N)=O)cc1
  0%, >57
> Cc1ccc(C(=O)c2cncc(Br)c2)cc1
  0%, >57
> CCOC(=O)C1=C(CNCc2ccccc2Cl)NC(=O)NC1c1ccc2c(c1)OCO2 (configuration not stated)
  0%, >57
> Cc1ccc(C(=O)NC2CCCCCC2)cc1N1CCCC1=O
  4%, >57
> CCn1c(=O)cc(SCC(=O)N2CCN(c3ccccc3OC)CC2)c2ccccc21
  -5%, >57
> CCOC(=O)c1c(C)[nH]c(C(=O)COc2ccc3c(c2)OCO3)c1C
  -14%, >57
> Cc1ccc(CNc2ccc(N3CCOCC3)cc2)s1
  -12%, >57
> O=C(c1cc2c(=O)oc3ccccc3c2s1)N1CCN(c2ncccn2)CC1
  3%, >57
> O=C1[C@H]2[C@H]3[C@H](O)[C@H](O)C/C(=N/OC[C@@H](O)COCc4ccco4)[C@H]3CC[C@@H]2C(=O)N1Cc1ccccc1
  2%[8 µM], ·
> COc1cc(CNc2cccc(F)c2)cc(Br)c1O
  ?, ·
> COc1ccc(CN(Cc2nc3ccccc3c(=O)[nH]2)C(=O)NC2CCCCC2)cc1
  -8%, >57
> O=C(CN1CCN(C(=O)N2CCOCC2)CC1)Nc1ccc(Br)cc1
  -2%, >57
> Cc1nn2c3ccccc3nc2c2ccccc12
  -7%, >57
> O=C1c2ccccc2C(=O)N1CCCc1nc(-c2cccnc2)no1
  8%, >57
> Nc1nonc1C(=O)NCCNCc1ccccc1OCc1ccccc1F
  2%, >57
> O=C1CN(C(=O)c2cccs2)c2ccccc2N1
  ?, >57
> CCCCCOC(=O)c1[nH]c2c(c1C)C(=O)CC(c1ccco1)C2 (configuration not stated)
  ?, >57
> O=C(CSc1nnc(Cc2ccccc2)n1-c1cccc(Cl)c1)N1CCOCC1
  -18%, >57
> CC1=CCC2C(=O)N(c3nc4ccccc4n3C)C(=O)C2C1 (configuration not stated)
  ?, ?
> Cc1nn(CC(O)Cn2c3c(c4ccccc42)CCN(C)C3=O)c(C)c1Br (configuration not stated)
  10%, >57
> CCC(c1nnnn1C1CCCC1)N1CCN(c2ccccc2)CC1 (configuration not stated)
  -1%, >57
> O=c1[nH]c2ccccc2nc1Cc1ccccc1
  6%, >57
> Nc1c(Cl)cc(Cl)cc1Cl
  3%, ·
> O=C(O)CCc1ccc(-c2cccs2)n1Cc1ccco1
  ·, >57
> CCOc1ccc(C2CC(c3ccc(F)cc3)n3ncnc3N2)cc1 (configuration not stated)
  -13%, >57
> Cc1cc(C)c2c(n1)nn1c(N3CCN(c4ccccc4C)CC3)cc(C)nc21
  7%, >57
> CCOc1ccc(OCC)c(NC(=O)C(NS(=O)(=O)c2ccc3c(c2)oc(=O)n3C)C(C)C)c1 (configuration not stated)
  -5%, >57
> CO[C@H]1COC(=O)[C@@H](CCSC)NC(=O)C/C=C\[C@@H](C)COC(=O)[C@@H](OCc2ccccc2)/C=C\[C@@H]1C
  -3%[1.6 µM], ·
> CCn1c2ccccc2c2nnc(SCC(=O)c3ccccc3)nc21
  ?, ·
> Cc1ccccc1-c1noc(-c2ccccc2C(=O)N2CCCC2)n1
  ?, >57
> CC(C)(C)NC(=O)Cn1nnc(-c2ccc(S(C)(=O)=O)cc2)n1
  -9%, >57
> Cc1ccc(C2C(C#N)=C(N)Oc3c2sc2ccccc32)o1 (configuration not stated)
  ?, ·
> C/C(Cl)=C/Cn1c(N2CCCC2)nc2c1c(=O)n(C)c(=O)n2C
  -4%, >57
> CC(C)CCSc1nc(N2CCOCC2)c2c(c1C#N)CC(C)(C)OC2
  ?, ·
> CC(=NCC(=O)O)c1ccccc1
  -4%[8 µM], >57
> O=C(Nc1scc(-c2ccc(F)cc2)c1C(=O)O)c1ccco1
  ?, >57
> CCOC(=O)N1CCN(CC(=O)Nc2c(C(=O)OC)[nH]c3ccc(Cl)cc23)CC1
  -18%, >57
> CC(=O)Nc1nc(C)c(Oc2ccccc2)c(=O)[nH]1
  7%, >57
> O=C(CCN1CCCC1)Nc1cccc(Br)c1
  ?, >57
> COc1cccc(C2c3c(oc4ccc(F)cc4c3=O)C(=O)N2CCCN2CCOCC2)c1 (configuration not stated)
  7%, >57
> CCCCc1ccc(NC(=O)COCC)cc1
  -3%, >57
> CCOC(=O)c1c(CN(C)C)n(C)c2ccc(OC(C)=O)cc12
  -5%, >57
> Cc1ccccc1NC(=O)c1ocnc1C
  6%, >57
> Cc1cc(C)nc(NC(=O)CCCC(=O)O)c1
  8%, >57
> COc1ccc(NC(=O)c2cccnc2)c(OC)c1
  12%, >57
> O=C(O)C1CCCN1C(=O)c1cncc(Br)c1 (configuration not stated)
  -4%, >57
> O=C(CN(Cc1ccco1)C(=O)CNS(=O)(=O)c1ccc(Cl)cc1)NCc1ccc(F)cc1
  -29%, >57
> O=C(O)CCCC(=O)Nc1cccc2cccnc12
  -8%, >57
> COC1=C(OC)C(=O)c2ccccc2C1=O
  ?, >57

# The last 3 compounds of the section above come first, to join the parts:
# Each structure is followed by: Anthrax LT inh, SmPrx2 inh
> O=C(CN(Cc1ccco1)C(=O)CNS(=O)(=O)c1ccc(Cl)cc1)NCc1ccc(F)cc1
  -29%, >57
> O=C(O)CCCC(=O)Nc1cccc2cccnc12
  -8%, >57
> COC1=C(OC)C(=O)c2ccccc2C1=O
  ?, >57
> O=C(O)C[C@H]1NCc2cc3ccccc3nc21
  6%[8 µM], >57
> CCOc1cc(/C=N/n2cnnc2)cc(Br)c1O
  -4%, >57
> O=c1ccccn1Cc1ccccc1F
  ·, >57
> O=C(Nc1cccnc1N1CCOCC1)c1ccco1
  2%, >57
> COc1ccc2[nH]cc(CCNc3nc(-c4ccc(N(C)C)cc4)nc4ccccc34)c2c1
  ?, >57
> CC(=NCCN1CCOCC1)c1c(O)n(-c2ccccc2C)c(=O)[nH]c1=O
  10%, >57
> CC1(C)CC(=O)c2cc(OCC(=O)NCc3cccnc3)ccc2O1
  11%, >57
> Cn1nc(-c2ccc(Cl)cc2)c2cc(C(=O)NCCN3CCOCC3)sc21
  ?, >57
> Cc1occc1C(=O)NC1CCCc2ccccc21 (configuration not stated)
  9%, >57
> COc1cc2c(=O)n(CC3CCCO3)c(=O)n(CC(=O)Nc3ccc(F)cc3F)c2cc1OC (configuration not stated)
  10%, >57
> COC(=O)C1=C(C)N=c2s/c(=C3\C(=O)Nc4ccccc43)c(=O)n2C1c1ccccc1 (configuration not stated)
  14%, >57
> Cc1ccc(Nc2ncnc3nc[nH]c23)cc1Cl
  -20%, >57
> CCN1C(=O)c2cccc3c(S(=O)(=O)Nc4ccccn4)ccc1c23
  17%, >57
> CCc1cc2c(nc1CC)CCN(CC/C(C)=N/OCC[C@@H]1C=C[C@H](OC(C)=O)[C@H](COC(C)=O)O1)C2
  1%[1.6 µM], ·
> CCCC(c1nnnn1Cc1ccccc1)N1CCN(c2ccccc2OC)CC1 (configuration not stated)
  ?, >57
> CCCCn1c(SCC(=O)Nc2cc(C)on2)nnc1-c1cccnc1
  ?, >57
> COC(=O)[C@@]1(Cc2ccccc2)[C@H]2c3cc(C(=O)N(C)C)n(Cc4c(CO)[nH]cc(C)c4=O)c3C[C@H]2CN1C(=O)c1ccccc1
  7%, >57
> Cc1ccc(F)cc1NC(=O)c1cccc(N(C)C)c1
  -15%, >57
> O=C1[C@@H]2[C@H]3[C@H](O)[C@H](O)C/C(=N/OC[C@@H](O)COCc4ccco4)[C@@H]3CC[C@H]2C(=O)N1c1ccc(F)cc1F
  -21%[8 µM], ·
> CCCn1c(SCC(=O)O)nc2ccccc21
  ?, >57
> COc1ccc(C(=O)N(Cc2ccc(N(C)C)cc2)C2CCS(=O)(=O)C2)cc1 (configuration not stated)
  ·, >57
> Cc1nn(C)c(C)c1Sc1ccc(Br)cc1
  -14%, >57
> O=C(Nc1cccc(F)c1)Nc1ccccn1
  -16%, ·
> CCOC(=O)N1CCN(Cc2ccccn2)CC1
  -2%, >57
> Cc1cccc2cc3c(NC(=O)C(C)C)nn(C)c3nc12
  7%, >57
> Cc1[nH]n2c(=O)cc(C(C)(C)C)nc2c1-c1ccccc1
  ·, >57
> COc1cc(CN2CCN(S(=O)(=O)c3ccc(NC(C)=O)cc3)CC2)cc(OC)c1O
  ?, >57
> Cc1nn2c3ccccc3nc2n(Cc2ccccc2)c1=O
  0%, >57
> CCC(C)(C)NC(=O)C(c1cccn1C)N(C(=O)Cn1nnc2ccccc21)c1ccc(OC)cc1 (configuration not stated)
  3%, >57
> Cc1cc(F)ccc1NCc1ccncc1
  0%, ·
> CCN1CCCC1CNC(=O)c1cc(S(=O)(=O)CC)c(N)cc1OC (configuration not stated)
  -16%, ·
> CC1CCC(NCCc2ccc3c(c2)OCO3)CC1 (configuration not stated)
  ?, >57
> CC(C)(C)C(O)(CCc1ccc(Cl)cc1)Cn1cncn1 (configuration not stated)
  ?, ·
> COc1cc(OC)c(NC(=O)Nc2ccc(OC)c(OC)c2)cc1Cl
  -9%, >57
> COc1ccc(-c2noc(COc3ccc4ccccc4c3Br)n2)cc1OC
  ?, >57
> Cc1nc2ccccn2c1C(=O)NC1CCCCC1
  -8%, ·
> COc1ccc(NC(=O)CSc2nnc(Cn3c(=O)sc4ccccc43)n2C)c(OC)c1
  ?, >57
> CC(C)OCCCNC(=O)c1ccc(NC(=O)C2CCCO2)cc1 (configuration not stated)
  6%, >57
> FC(F)(F)c1ccccc1-c1cc(NCCN2CCOCC2)ncn1
  0%, >57
> C(/C=C\c1ccccc1)=Nc1ccc2c(c1)Cc1ccccc1-2
  -4%[8 µM], >57
> Cc1ccc(NC(=O)C2CCCN2C(=O)Oc2ccccc2)cc1 (configuration not stated)
  -6%, >57
> C[C@@H](CN(C)C)CN1c2ccccc2Sc2ccccc21
  12%[3.58 µM], >57
> CSc1nc(C)c(Cl)c(C)c1C#N
  4%, >57
> CC(C)CN(CC#N)CC(C)C
  -1%[8 µM], >57
> O=C(NCCCn1ccnc1)c1cc(C2CC2)on1
  -8%, >57
> O=C(NCC(c1cccnc1)N1CCOCC1)c1cccs1 (configuration not stated)
  8%, >57
> COc1cccc(-n2c(SCC(=O)Nc3cc(C)on3)nc3ccccc3c2=O)c1
  -12%, >57
> CC(C)CCNC(=O)CCn1nc(-c2ccccc2)ccc1=O
  -2%, >57
> N=C(N)SCc1cccc2c(=O)cc(-c3ccccc3)oc12
  -4%[8 µM], >57
> C[C@H](NC(=O)/C(C#N)=C/c1ccc(O)c(O)c1)c1ccccc1
  ?, >57&>57&>57
> O=C(c1ccncc1)N1CCC2(CC1)CN(Cc1cc(C(F)(F)F)cc(C(F)(F)F)c1)C2
  13µM*, >57
> CSc1nnc(NC(=O)C2CCCCC2)s1
  -11%, >57
> Cn1nc(CC(=O)Nc2ccc3c(c2)CCC3)c2ccccc2c1=O
  13%, >57
> CCC(=O)Nc1cccc(NC(=O)CSc2nnnn2C)c1
  -8%, >57
> CCC(NC(=O)c1ccccc1O)c1ccccc1 (configuration not stated)
  -15%, >57
> Cn1c(=O)n(C)c2cc(NC(=O)CSc3nnc(-c4ccccc4O)n3-c3ccccc3)ccc21
  -12%, >57
> C=CC(=O)OCCN(C)C
  2%, ·
> Cc1ccc(Cl)cc1N1CCN(S(=O)(=O)c2c(C)[nH]c(=O)[nH]c2=O)CC1
  15%, >57
> N#C/C(=C(\O)c1ccco1)c1ccccn1
  -3%, >57
> CC(=O)Nc1cc2nn(-c3ccccc3)nc2cc1Cl
  4%, >57

# Source: PubChem (National Center for Advancing Translational Sciences (NCATS))
